Assay outcomes from PubChem BioAssay.
TRPML1 agonist – human mucolipin-1 channel agonism; AID 624414; TRPML1-expressing cells, Ca2+ dye fluorescence, FDSS; host cell line not named in the record; reference of the full effect not given here; 410,000 tested, 0.12% active; Q9GZU1; activation, % (concentration not given with the values); in the data active = activation above about 50%; inconclusive = about 30% to 50%; inactive = below about 30%; note: 0% is about no effect; the text of the record puts the active cut at 80%
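In this qHTS format, compounds were pin-transferred onto Ca8-dye-loaded TRPML1-DL cells induced with Tet overnight, and intracellular Ca2+ fluorescence was recorded kinetically for 110 s after a 10 s baseline. A subsequent 4uM final 54-4 (EC80) addition followed by a second 110 s read served as the antagonist phase.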
Six1-Eya2 blk – blocks human Six1 binding to Eya2. 360,000 tested, 0.56% active. Q15475+O00167. activity change, % (no concentration beside the values). AlphaScreen GST-Six1/His-Eya2 binding, biochemical; active compounds read low; control for the full effect not named in the record; in the data active = activity change below about -65%; inconclusive = about -30% to -65%; inactive = above about -30%; note: % is set by controls: 0 for no effect and ±100 for the full control effect
Target sequence (O00167 whole entry, looked up): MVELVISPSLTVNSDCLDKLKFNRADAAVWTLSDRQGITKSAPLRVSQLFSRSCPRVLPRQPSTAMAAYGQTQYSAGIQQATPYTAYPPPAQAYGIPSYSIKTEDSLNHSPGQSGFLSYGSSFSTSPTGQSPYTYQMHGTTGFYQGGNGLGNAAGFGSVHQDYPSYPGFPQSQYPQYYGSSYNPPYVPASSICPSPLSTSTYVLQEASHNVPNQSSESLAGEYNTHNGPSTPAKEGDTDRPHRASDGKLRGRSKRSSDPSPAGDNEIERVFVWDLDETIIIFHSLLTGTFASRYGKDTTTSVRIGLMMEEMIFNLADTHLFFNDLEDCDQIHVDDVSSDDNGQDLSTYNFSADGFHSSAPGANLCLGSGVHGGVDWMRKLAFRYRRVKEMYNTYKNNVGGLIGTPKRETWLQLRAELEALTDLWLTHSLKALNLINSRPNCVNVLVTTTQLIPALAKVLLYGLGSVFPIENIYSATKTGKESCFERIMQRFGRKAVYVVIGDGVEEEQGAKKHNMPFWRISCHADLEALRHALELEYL
Target sequence (Q15475 whole entry, looked up): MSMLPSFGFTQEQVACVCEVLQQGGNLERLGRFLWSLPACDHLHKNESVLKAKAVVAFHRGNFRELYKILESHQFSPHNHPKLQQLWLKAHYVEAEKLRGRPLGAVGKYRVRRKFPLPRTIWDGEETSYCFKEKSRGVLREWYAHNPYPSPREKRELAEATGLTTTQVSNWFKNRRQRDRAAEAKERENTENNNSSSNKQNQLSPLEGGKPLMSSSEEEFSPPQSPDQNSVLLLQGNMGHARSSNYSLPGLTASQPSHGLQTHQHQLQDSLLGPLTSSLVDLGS
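Compounds are tested against tagged Six1 and Eya2 proteins bridged by glutathione donor and nickel acceptor beads; after a one-hour incubation at 37 °C without light, AlphaScreen emission is recorded.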
TRPML1 blocker – inhibitors of human TRPML1 channel; Q9GZU1; TRPML1-inducible cells, Ca2+ dye fluorescence, FDSS; active compounds read low; inhibition of EC80 agonist-evoked calcium signal; activity change, negative = inhibition, % (concentration not given with the values); 390,000 tested, 0.02% active; in the data active means activity change below about -50%; inconclusive means about -30% to -50%; inactive means above about -30%;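 note: stimulus is agonist 54-4 at its EC80 concentration; % is set by controls: 0 for no effect and ±100 for the full control effect; the text of the record puts the active cut at -80%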
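Tet-induced TRPML1-DL cells loaded with Ca8 no-wash calcium dye were read kinetically on FDSS. Compound addition was followed by EC80 agonist 54-4 (4 uM final); inhibition was read over 110 s.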
CtBP-E1A blk – CtBP/E1A binding inhibition; AlphaScreen GST-E1A/His-CtBP binding, 1536-well; active compounds read low; control for the full effect not named in the record; activity change, % (concentration not given with the values); 340,000 tested, 0.49% active; in the data active means activity change below about -65%; inconclusive means about -30% to -65%; inactive means above about -30%; note: % is set by controls: 0 for no effect and ±100 for the full control effect
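In 5 uL wells, 23 nL compound meets equimolar GST-E1A and His-CtBP (5X stock 125 nM each) for 2 h, 37 °C. Beads (5X, 50 ug/mL) then 1 h, 37 °C, dark.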
D2 ag – human D2 receptor agonism in beta-arrestin assay. P14416. DiscoveRx PathHunter D2 beta-arrestin, luminescence, 90 min; 100% = 57 uM dopamine signal. activation, % (test concentration not listed). 360,000 tested, 0.084% active; in the data active = activation above about 40%; inconclusive = about 15% to 40%; inactive = below about 15%; note: compound concentration not given in the record; the text of the record calls up to 30% inactive
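DiscoveRx PathHunter D2 beta-arrestin cells (2,100/well) attached overnight, then compound-stimulated 90 min at 37 C in HBSS/10 mM HEPES/0.1% Tween-20 buffer; beta-galactosidase complementation read by luminescence after 1 h at ambient temperature. Dopamine 57 uM final (EC100) as control.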
PINK1 expr mod – modulators of PINK1 expression. PINK1 immunofluorescence, high-content cytometry, 24 h. Potency, µM (doses to about 76.6 µM), for the others: at the highest dose activation (PINK1 increase), actives largely listed as activators. 410,000 tested, 0.2% active. AID 624263; active = well fitted activation curve with a large enough effect; inconclusive = small, poorly fitted or top-dose-only effect; inactive = flat fitted curve, though single readings scatter; cell line not stated here;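 note: potency is the fitted concentration of half-maximal effect; % of control where 0% means no effect; nearly all actives have a fitted effect of over 65% in size; a mitochondrial uncoupler was the plate control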
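A stable cell line was treated with compounds at 5 concentrations for 24 hours, with CCCP as control. PINK1 levels and mitochondrial localization were measured by immunofluorescence with mitochondrial, cell and nuclear markers after fixation, read by laser-scanning cytometry.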
Starred values were filed as active, the others as inactive; ? = inconclusive; / = no result given; [ ] = remark or other dose.

SMILES	TRPML1 agonist	Six1-Eya2 blk	TRPML1 blocker	CtBP-E1A blk	D2 ag	PINK1 expr mod
CCN(C(=O)COC(=O)/C=C/c1ccc(OC)c(OC)c1)c1c(N)n(Cc2ccccc2)c(=O)[nH]c1=O	-0.5	2	-2	-6	2.4	0.2%
CNc1nc(OC)nc(N2CCOCC2)n1	1.0	3	11	-2	-2.0	0.4%
CC[C@]12c3[nH]c4cc(CCC(=O)N(C)C)ccc4c3CCN1C(=O)[C@@H](CC(=O)NCCCOC)C[C@@H]2C(=O)N1CCN(C(=O)c2ccco2)CC1	-0.3	4	4	3	0.2	0.1%
CC1(C)CC(=O)C(Sc2nnc(-c3ccc(O)cc3)n2CC2CCCO2)C(=O)C1 (stereo not drawn)	0.7	6	-9	6	-0.3	-2.7%[38.3 µM]
COc1ccccc1N1CCN(c2cc(C)nc3c(-c4ccc(Cl)cc4)c(C)nn23)CC1	0.2	/	-25	/	/	3.4%
CCn1ccnc1CN(C)C(=O)c1ccc(OC2CCN(CCc3ccccc3)CC2)cc1	0.3	-4	5	-21	0.1	0.5%
Cc1cc(C)c(C)c(S(=O)(=O)N2CCC(C(=O)OCC(=O)NC3CCS(=O)(=O)C3)CC2)c1C (stereo not drawn)	0.7	-5	12	-4	-1.0	1.0%
Cc1cc(Br)ccc1OCCCCN1CCCCC1	1.6	-6	16	1	4.2	0.7%
Cc1cc(S(=O)(=O)n2cnc3ccccc32)c(C)cc1Cl	1.4	6	14	1	3.3	-0.4%
O=C(CSc1nc(-c2ccc(F)cc2)cc(C(F)(F)F)n1)NCCc1ccccc1	2.4	/	-5	/	/	5.9%
O=C(C[C@H]1C/C=C\C[C@H](Cc2ccc(F)cc2)C(=O)O[C@@H](c2ccccc2)CNC1=O)N[C@@H](CO)Cc1ccccc1	-0.3	1	12	-4	-1.5	1.8%
CC(Oc1cccc(Cl)c1)C(=O)Nc1cc(S(=O)(=O)N2CCOCC2)ccc1N1CCCC1 (stereo not drawn)	2.0	3	-13	-12	0.6	0.1%
Cc1cccc(N/N=C(\C(N)=O)C2=NC(C)(C)Cc3ccccc32)c1	5.5	?	5	?	-2.2	0.2%
Cc1cccc(NC(=O)CN2CCN(C(=O)C(C)Oc3ccc(C#N)cc3)CC2)c1C (stereo not drawn)	0.3	5	44	3	-1.1	2.7%
Clc1cc(/C=N\NC2=NCCN2)cc(Cl)n1	1.0	-1	-9	-1	-8.6	0.1%
CCN(CC)c1ccc(C(=O)N/N=C/c2ccccc2OC(F)F)cc1	0.8	-11	-2	-7	-2.3	5.3%
CC1C(=O)OC(c2ccc(Br)cc2)C(C)(C)C1=O (stereo not drawn)	1.7	5	5	7	-3.0	0.6%
COc1ccc(C(=O)Nc2ccc(-c3nnn(CC(=O)NCc4ccco4)n3)cc2)cc1	-0.4	10	31	/	-3.7	7.0%
Nc1nc2cc(Cl)c(Br)cc2o1	0.6	-1	11	9	-0.9	-5.7%
CCc1cc2cc(C)cc(C)c2nc1SCC(=O)N1CCN(C(=O)c2ccco2)CC1	1.5	6	-8	-2	-0.8	24%
O=C(O)CCCN=Cc1c(O)c2ccccc2oc1=O	0.0	8	6	2	-3.5	2.7%
O=C(NNC1CC(=O)N(c2ccc(Br)cc2)C1=O)c1ccco1 (stereo not drawn)	0.8	-1	4	15	1.9	-1.1%
CC(=O)NC(=S)Nc1ccc(NC(=O)COc2ccc(C(C)C)cc2)cc1	2.3	0	31	8	-3.2	18%
COc1cc(S(=O)(=O)N(Cc2cccs2)C2CC2)ccc1-n1cnnn1	-0.2	-2	14	2	-2.5	-1.9%
Cc1ccc(OCCCC(=O)Nc2ccccc2C(F)(F)F)cc1	1.7	6	4	15	-3.7	-1.1%
Remaining list, next part.
SMILES	TRPML1 agonist	Six1-Eya2 blk	TRPML1 blocker	CtBP-E1A blk	D2 ag	PINK1 expr mod
CCOC(=O)c1cc(-c2ccc(/C=C3/C(=O)NC(=O)C(C#N)=C3C)o2)ccc1Cl	-0.1	-27	1	-8	-1.0	-2.2%[38.3 µM]
CC(C)(C)C(=O)NC1(C(F)(F)F)C(=O)Nc2c1c(=O)[nH]c(=O)n2-c1ccccc1 (stereo not drawn)	-0.7	/	-15	/	/	-2.1%
COc1cc(CN(C)Cc2cc(=O)n3ccsc3n2)ccc1OC(F)F	-0.6	-7	-1	-1	-1.2	-0.7%
COc1ccc(/C=C/C=C2\N=C(SC)SC2=O)cc1	2.0	-9	10	1	-0.2	8.6%
c1ccc2c(Cn3nnc4ccccc43)cccc2c1	-0.1	7	-8	4	-4.0	3.0%[38.3 µM]
Cc1ccc2nc3c(c(C(=O)O)c2c1)CCC3	0.9	-5	-3	9	-2.7	4.1%[38.3 µM]
CCc1c(C)c2ccc(OC(C)C(=O)NC(Cc3c[nH]c4ccc(O)cc34)C(=O)O)c(C)c2oc1=O (stereo not drawn)	/	-11	/	-7	-5.5	-0.2%
Cc1c(C(=O)O)sc2nc(-c3cccs3)cc(C(F)(F)F)c12	0.1	-24	25	-12	-2.6	-0.8%
CC(C)OP(=O)(OC(C)C)C(Nc1ccc([N+](=O)[O-])cc1)c1cccc([N+](=O)[O-])c1 (stereo not drawn)	1.0	-8	2	2	-4.9	0.4%
Cc1ccc(C)c(NC(=O)CN(C)C(=O)CN2C(=O)NC3(CCc4ccccc43)C2=O)c1 (stereo not drawn)	-0.7	2	-8	6	-1.6	0.0%
COC(=O)c1c(SC)nc2ccccc2c1OCc1ccc(C)cc1	0.2	/	-5	/	/	4.8%
COc1ccccc1CNS(=O)(=O)c1ccc2c(c1)CC(C)N2C(C)=O (stereo not drawn)	1.3	/	5	/	/	0.8%
COc1ccc(C2=NO[C@H]3C[C@](C(=O)NC(C)C)(S(=O)(=O)c4ccccc4)C[C@@H]23)cc1	0.0	3	15	/	-0.1	-0.8%
COc1ccccc1Nc1nnc(SCc2cc(=O)n3ccsc3n2)s1	-0.2	-10	19	-1	-4.8	5.8%
O=C1CN(C(=O)c2ccc(Cl)nc2)c2ccccc2N1	3.2	4	2	0	1.3	-2.1%
CC(C)N1CCN(Cc2cnc(N3CCCC3)s2)CC1CCO (stereo not drawn)	0.7	14	-3	7	-0.2	-1.4%
Cc1[nH]c2ccccc2c1C(=O)COC(=O)Cn1c(C)nc2ccccc21	0.7	-12	26	-24	-3.1	4.5%
Cc1c(N2C(=O)/C(=C3/C(=O)N(C)c4ccccc43)SC2=S)c(=O)n(-c2ccccc2)n1C	1.7	2	-10	8	2.6	4.4%[38.3 µM]
O=C(CSCc1ccccc1Cl)NN1C(=O)c2ccccc2C1=O	4.3	-2	-5	-6	-3.1	0.6%[38.3 µM]
COc1cccc2cc(C(=O)C3=C(O)C(=O)N(CCN4CCOCC4)C3c3ccc(C(C)(C)C)cc3)oc12 (stereo not drawn)	0.0	-5	-2	/	-3.8	-1.5%
Cc1c(Br)ccc(NC(=O)c2ccccc2[N+](=O)[O-])c1C	0.9	7	0	/	2.3	6.1%
CC(C)c1ccc(NC(=O)CN2C(=O)C3(SCC(=O)N3c3ccc(F)cc3)c3ccccc32)cc1 (stereo not drawn)	2.0	/	-18	/	/	-5.1%
CCCCN(CCCC)S(=O)(=O)c1ccc(C(=O)Nc2sc3c(c2C(N)=O)CCN(CC)C3)cc1	3.2	/	-18	/	/	2.2%
O=C(c1ccccc1)c1c[nH]c(C(=O)NCCCn2ccnc2)c1	1.1	-26	16	?	-1.6	-2.4%
O=C(Cn1c(SCC(=O)N2CCc3ccccc32)nc2ccccc21)NC1CCCC1	-0.4	24	32	0	-4.0	12%

Ordered by value in TRPML1 blocker (descending): 3 from the list above
mol | Six1-Eya2 blk | TRPML1 blocker | CtBP-E1A blk | D2 ag | PINK1 expr mod
Cc1c(C(=O)O)sc2nc(-c3cccs3)cc(C(F)(F)F)c12 | -24 | 25 | -12 | -2.6 | -0.8%
O=C(O)CCCN=Cc1c(O)c2ccccc2oc1=O | 8 | 6 | 2 | -3.5 | 2.7%
COC(=O)c1c(SC)nc2ccccc2c1OCc1ccc(C)cc1 | / | -5 | / | / | 4.8%

The listing continues.
SMILES	TRPML1 agonist	Six1-Eya2 blk	TRPML1 blocker	CtBP-E1A blk	D2 ag	PINK1 expr mod
Cc1cccn2cc(CCNC(=O)c3ccc(Br)o3)nc12	0.0	4	-10	-1	-6.3	1.4%
CCC(=O)N1CCc2cc(Br)cc(S(=O)(=O)N3CCCC(C(=O)Nc4cccc(F)c4)C3)c21 (stereo not drawn)	-0.6	/	5	/	/	2.6%
Cc1ccsc1C(=O)C1CCCN(Cc2cccn2-c2ccc(Cl)cn2)C1 (stereo not drawn)	-0.1	-8	-8	/	-10	?
CCOc1ccc(/C=N/NC(=O)c2cc3c(OC)cc(OC)c(OC)c3[nH]2)cc1	4.7	?	-9	?	11	3.1%
O=C(NCCc1ccccc1)c1ccccc1[N+](=O)[O-]	0.3	0	-5	8	-2.0	0.7%
O=C(NNC(=O)c1ncc(Cl)c(Cl)c1Cl)c1ccc(F)cc1	-0.2	0	-14	7	-1.7	-0.3%
O=C(Nc1nc(-c2ccccn2)cs1)C1CCCC1	0.7	?	3	-8	-3.2	0.3%
CCCOc1ccc(/C(O)=C2/C(=O)C(=O)N(CCN(C)C)C2c2ccncc2)cc1 (stereo not drawn)	0.3	4	8	9	1.3	-0.1%
COc1ccc(C2=CC(=O)CC(c3ccc(F)cc3)C2)cc1 (stereo not drawn)	0.1	0	-11	/	1.3	1.6%
O=C(NCc1ccco1)C1CCN(C(=O)N2CCOc3ccccc32)CC1	-0.7	/	8	/	/	-2.2%
CC(=O)c1cccc(CN2CCCC(C(=O)Nc3ccc(-c4ccco4)cc3)C2)c1 (stereo not drawn)	-0.6	-14	-2	-9	0.9	1.7%
CCOc1ccc2c(c1)C(C)=CC(C)(C)N2S(=O)(=O)c1ccc(NC(C)=O)cc1	-0.3	-1	26	/	-0.3	2.7%
CC(NC(=O)/C(C#N)=C/c1ccc(OCC(=O)O)cc1)c1ccccc1 (stereo not drawn)	-0.6	0	5	/	-0.4	1.3%
CCNS(=O)(=O)c1ccc(C(=O)Nc2ccccc2)cc1	1.1	3	2	1	-1.3	0.4%[38.3 µM]
O=C(CNC(=O)c1sc2ccccc2c1Cl)Nc1ccccc1F	0.1	4	8	7	-6.2	7.8%
C=CCn1c(-c2ccc(OC)c(OC)c2)cs/c1=N\c1ccccn1	-0.9	-11	-9	4	-2.3	-0.6%
COc1ccccc1CC(=O)NCc1ccc2c(c1)OCO2	-0.9	14	8	1	-1.6	-0.2%
COc1ccc(/C=C2\CCc3ccccc3C2=O)cc1Cn1cccn1	4.3	-3	52	-16	-0.1	-3.8%
C=CCc1cccc(CNc2nc3ccccc3n2CCN2CCOCC2)c1O	1.3	-5	2	10	-2.8	9.1%[38.3 µM]

Single records, as listed above. Values in the order: TRPML1 agonist | Six1-Eya2 blk | TRPML1 blocker | CtBP-E1A blk | D2 ag | PINK1 expr mod
Shown for CCOc1ccc(/C=N/NC(=O)c2cc3c(OC)cc(OC)c(OC)c3[nH]2)cc1 : 4.7 | ? | -9 | ? | 11 | 3.1%
Shown for CCNS(=O)(=O)c1ccc(C(=O)Nc2ccccc2)cc1 : 1.1 | 3 | 2 | 1 | -1.3 | 0.4%[38.3 µM]
Shown for CCCOc1ccc(/C(O)=C2/C(=O)C(=O)N(CCN(C)C)C2c2ccncc2)cc1 (stereo not drawn) : 0.3 | 4 | 8 | 9 | 1.3 | -0.1%
